LASV entry inh: qHTS for Inhibitors of binding or entry into cells for Lassa Virus; Lassa virus pseudotype entry inhibition, cell reporter; control for the full effect not named in the record; AID 540256, 2011; 300,000 tested, 1.2% active; Potency, µM (top dose mostly 37.9 µM), inactives show top-dose activity change, negative = inhibition, usual class: inhibitors; active means well fitted inhibition curve with a large enough effect; inconclusive means small, poorly fitted or top-dose-only effect, or effect the other way; inactive means flat fitted curve, though single readings scatter; tested in HEK293 cells; also: % is scaled to controls: 0 for no effect and ±100 for the full control effect; nearly all actives have a fitted effect of over 50% in size; luciferase read-out
SARS PLP yeast: qHTS of Yeast-based Assay for SARS-CoV PLP | S. cerevisiae expressing SARS-CoV PLpro, growth rescue; control for the full effect not named in the record | Potency, µM (doses to about 32.9 µM), for inactives: at the highest dose activity, positive = growth rescue | 330,000 tested, 0.19% active | AID 485353, 2010; also: 0% is about no effect; nearly all actives have a fitted effect of over 55% in size; growth read by luminescence after 48 h
2A StopGo: High Throughput Screening for Foot and Mouth Disease Virus Antivirals | human cells with a luciferase reporter of 2A StopGo recoding; control for the full effect not named in the record | Potency, µM (doses to about 57.9 µM), for inactives: at the highest dose signal change, negative = less light | 410,000 tested, 1.2% active | AID 1159524, 2015; active = well fitted falling curve with a large enough effect; inconclusive = small, poorly fitted or top-dose-only effect; inactive = no such curve, though single readings can be large or run the other way; tested in HEK293T cells; also: % is scaled to controls: 0 for no effect and ±100 for the full control effect; nearly all actives have a fitted effect of over 45% in size; luciferase light after 4 h
Cruzain inh Det: qHTS Assay for Promiscuous and Specific Inhibitors of Cruzain (with detergent). Cruzipain (Trypanosoma cruzi), P25779. 200,000 tested, 0.43% active. purified cruzain, Z-FR-AMC fluorescence, 0.01% Triton. Potency, µM, for inactives: max response, negative = inhibition, actives largely listed as inhibitors; active = well fitted curve in the direction sought with a large enough effect; inconclusive = small, poorly fitted or top-dose-only effect, or another doubt; inactive = no such curve, though single readings can be large; an effect the other way counts as inactive or inconclusive;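 also: plate controls were neutral wells for no effect and buffer without enzyme for full effect; nearly all actives have a fitted effect of over 40% in size; top concentration of the series not given in the record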
Target sequence (P25779 123-467 limits assumed): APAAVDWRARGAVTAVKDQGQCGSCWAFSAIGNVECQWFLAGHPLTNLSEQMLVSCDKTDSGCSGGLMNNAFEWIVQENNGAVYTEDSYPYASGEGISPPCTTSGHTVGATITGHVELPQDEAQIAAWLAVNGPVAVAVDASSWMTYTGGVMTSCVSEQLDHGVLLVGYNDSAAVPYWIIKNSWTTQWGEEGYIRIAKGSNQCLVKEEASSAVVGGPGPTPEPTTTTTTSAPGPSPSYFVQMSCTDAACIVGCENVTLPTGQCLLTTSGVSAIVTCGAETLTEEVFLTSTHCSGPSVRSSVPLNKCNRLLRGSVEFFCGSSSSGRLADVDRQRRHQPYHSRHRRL
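Cysteine protease activity tested under reducing, mildly acidic conditions (100 mM sodium acetate pH 5.5, 5 mM DTT) plus 0.01% Triton X-100. Cruzain 1.5 nM; substrate Z-FR-AMC 2 uM; 15 min compound preincubation at room temperature.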
NS1 inh: qHTS Assay for Inhibitors of Influenza NS1 Protein Function; S. cerevisiae slowed by influenza A NS1, growth recovery by OD600; Potency, µM (highest dose often 46.1 µM), for inactives: at the top dose activity, positive = more growth; 270,000 tested, 0.4% active; AID 2326, 2010; also: actives are rising curves; nearly all actives have a fitted effect of over 50% in size
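S. cerevisiae expressing influenza A NS1, grown in glucose, washed, then diluted 1:100 into pH 6.0 -URA galactose medium with 23 nl compound. Growth recovery read as OD600; NS1-free strain serves as control.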
RE007 growth inh: qHTS Assay for Inhibitors of the HIV-1 protein Vpr | AID 651644, 2012 | 360,000 tested, 0.21% active | Potency, µM (titrated, usually from 92.2 µM), inactives show at the highest dose activity change, negative = less growth | S. pombe RE007 Vpr strain, BacTiter-Glo ATP luminescence, 24 h; control for the full effect not named in the record; active = well fitted falling curve with a large enough effect; inconclusive = small, poorly fitted or top-dose-only effect; inactive = no such curve, though single readings can be large or run the other way;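 also: % is scaled to controls: 0 for no effect and ±100 for the full control effect; nearly all actives have a fitted effect of over 50% in size; the assay follows cell death caused by Vpr and the record does not say whether a fall means rescue or toxicity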
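Fission yeast RE007 carrying one integrated HIV-1 vpr copy, seeded at OD 0.01 in PMG+AL medium with 23 nL pinned compound. Grown 24 h at 30 degrees; viability read by BacTiter-Glo luminescence after 5 min.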
MARV entry inh: qHTS for inhibitors of binding or entry into cells for Marburg Virus; Marburg virus pseudotyped entry inhibition, cell reporter; control for the full effect not named in the record; about a third of the inactives were read at about 46 µM; Potency, µM (highest dose often 37.8 µM), for inactives: top-dose activity change, negative = inhibition, hits mostly inhibitors; 300,000 tested, 1.8% active; AID 540276, 2011; active = well fitted inhibition curve with a large enough effect; inconclusive = small, poorly fitted or top-dose-only effect, or effect the other way; inactive = flat fitted curve, though single readings scatter; tested in HEK293 cells; about a fifth of its hits are not listed in these tables; also: % is scaled to controls: 0 for no effect and ±100 for the full control effect; luciferase read-out
Cruzain noTriton: qHTS Assay for Promiscuous and Specific Inhibitors of Cruzain (without detergent); Cruzipain (Trypanosoma cruzi), P25779; purified cruzain, Z-FR-AMC fluorescence, no detergent; Potency, µM, for inactives: max response, negative = inhibition, usual class: inhibitors; 200,000 tested, 2.3% active; active = well fitted curve in the direction sought with a large enough effect; inconclusive = small, poorly fitted or top-dose-only effect, or another doubt; inactive = no such curve, though single readings can be large; an effect the other way counts as inactive or inconclusive;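 also: plate controls were enzyme without inhibitor for no effect and buffer without enzyme for full effect; nearly all actives have a fitted effect of over 40% in size; top concentration of the series not given in the record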
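Purified cruzain at 1.5 nM, pre-incubated 15 min with compound at room temperature in 100 mM sodium acetate pH 5.5, 5 mM DTT, 0.00005% Triton X-100. Reaction started with 2 uM Z-FR-AMC; AMC fluorescence increase over 60 s gives rate.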
* marks the source's active call; other numbers are inactive results; ? = inconclusive; . = no result given; [ ] = another dose, or the depositor's remark. Unless noted, calls follow the shape of the dose curve; as a rule, active means well fitted rising curve with a large enough effect; inconclusive means small, poorly fitted or top-dose-only effect; inactive means no such curve, though single readings can be large or run the other way. Potency is read from the fitted curve at half-maximal effect. No enrichment for hits; any-hit rate near 4.7%.

no. | structure | LASV entry inh | SARS PLP yeast | 2A StopGo | Cruzain inh Det | NS1 inh | RE007 growth inh | MARV entry inh | Cruzain noTriton
1 | CCc1ccc(CNC(=O)c2ccc(OC3CCN(C(C)=O)CC3)c(OC)c2)nc1 | -13% | -3% | -8% | . | 12% | -23% | 26% | .
2 | CSc1oc(-c2cccs2)nc1S(=O)(=O)c1ccccc1 | . | -1% | 6% | . | -2% | -7% | . | .
3 | Cc1ccc(C)c(Nc2ncccc2C(=O)NCc2cccs2)c1 | ? | -59% | -24% | -7.8% | -30% | 16% | ? | -8%
4 | Brc1cc2c(cc1C1OCCO1)OCO2 | 20% | . | -15% | . | . | -11% | 8% | .
5 | CCOC(=O)N1CCC(N(CCOC)C(=O)Nc2ccc(Cl)c(Cl)c2)CC1 | 9% | -10% | . | -5.3% | -113% | 7% | -9% | ?
6 | CCOC(=O)C1CCN(C(=O)CCc2nnc3ccc(N4CCC(C)CC4)nn23)CC1 | 14%[46.1 µM] | 0% | -14% | . | -5% | -6% | -7%[46.1 µM] | .
7 | Cc1cc2nnc(SC(C)C#N)n2c2ccccc12 (stereo not given) | 6% | -9% | -3% | -4.6% | 4% | -23% | 2% | 3%
8 | COc1ccc2nc(N3CCCC3)[nH]c2c1 | ? | 1% | 37%[activator] | 1.5% | 0% | -2% | 1% | 6%
9 | Cc1ccc(S(=O)(=O)NCC(=O)N(CC(=O)NC(C)(C)C)Cc2cccs2)cc1 | 4% | 0% | 16% | 2.8% | 12% | 4% | 4% | 6%
10 | O=C1NC(=O)C2(Cc3ccccc3N3CCCC32)C(=O)N1c1cccc(Cl)c1 (stereo not given) | -3% | -1% | 2% | 6.5% | -2% | -6% | -1% | -10%
11 | CC(C)OCCCNC(=O)c1ccc(Cn2c(=O)c3cccn3c3cccnc32)cc1 | 19%[46.1 µM] | . | -3% | 6.6% | . | . | . | 20%
12 | COc1ccc(N(CC(=O)N/N=C/c2ccc(C(=O)O)cc2)S(=O)(=O)c2ccc(NC(C)=O)cc2)cc1 | . | 1% | -2% | . | 12% | -11% | . | .
13 | COc1ccc(CNC(=O)Cn2c(SCC(=O)N(C)c3ccccc3)nc3ccccc32)cc1 | ? | . | 5% | -2.0% | . | . | . | -8%
14 | COc1ccccc1C(=O)NNC(=O)c1cccc(O)c1 | . | -2% | 6% | . | ? | -1% | . | .
15 | COc1ccc(S(=O)(=O)N2CCN(C(=O)C3CCCO3)CC2)cc1 (stereo not given) | -12% | 0% | -1% | . | 2% | ? | -24% | .

One compound at a time (already shown):
`COc1ccc(CNC(=O)Cn2c(SCC(=O)N(C)c3ccccc3)nc3ccccc32)cc1` reads LASV entry inh: ?; SARS PLP yeast: .; 2A StopGo: 5%; Cruzain inh Det: -2.0%; NS1 inh: .; RE007 growth inh: .; MARV entry inh: .; Cruzain noTriton: -8%
`O=C1NC(=O)C2(Cc3ccccc3N3CCCC32)C(=O)N1c1cccc(Cl)c1` (stereo not given) reads LASV entry inh: -3%; SARS PLP yeast: -1%; 2A StopGo: 2%; Cruzain inh Det: 6.5%; NS1 inh: -2%; RE007 growth inh: -6%; MARV entry inh: -1%; Cruzain noTriton: -10%

(listing goes on)
no. | structure | LASV entry inh | SARS PLP yeast | 2A StopGo | Cruzain inh Det | NS1 inh | RE007 growth inh | MARV entry inh | Cruzain noTriton
16 | Cc1ccccc1OCc1ccc(-c2nc(C#N)c(NCc3cccnc3)o2)o1 | -16%[46.1 µM] | . | ? | -9.6% | . | . | -4%[46.1 µM] | ?
17 | CC(Sc1n[nH]c(-c2cccs2)n1)C(=O)N1CCCC1 (stereo not given) | 14%[46.1 µM] | -3% | 4% | . | . | 1% | 17%[46.1 µM] | .
18 | O=S(=O)(c1ccc(Cl)cc1)c1nc(-c2cccs2)oc1SCc1ccc(F)cc1 | -21%[46.1 µM] | . | 19% | -9.0% | . | . | ? | 3%
19 | CCN(CC)C(=O)c1cc2c(=O)c3cc(Cl)ccc3oc2nc1C | 4% | -1% | 46%[activator] | . | ? | 4% | 28%[46.1 µM] | .
20 | CC(C)CN(C(=O)C(C)N1C(=O)c2ccccc2C1=O)c1c(N)n(Cc2ccccc2)c(=O)[nH]c1=O (stereo not given) | 0% | . | -18% | . | . | 4% | 8% | .
21 | COc1cc(NC(=O)CSc2nc(=O)n(CCN3CCOCC3)c3c2CCCC3)cc(OC)c1 | ? | -3% | -5% | . | . | -2% | 15%[46.1 µM] | .
22 | CCOC(=O)c1ccc(NC(=O)c2n[nH]c(=O)c3ccccc23)cc1 | 16% | -1% | 42%[activator] | . | -3% | -3% | 15%[46.1 µM] | .
23 | CC1CN(Cc2nc3c(c(=O)[nH]c(=O)n3C)n2CCCc2ccccc2)CC(C)O1 (stereo not given) | 0% | 4% | -20% | -1.1% | -1% | 16% | 1% | 11%
24 | O=C(NC1CCCCC1)N1CCN(C(=O)c2ccco2)CC1 | -10% | 1% | -20% | 3.9% | 0% | -4% | 10% | 4%
25 | COc1ccc(N2CCN(c3nc(=S)n(-c4ccccc4)c(C)c3C(C)=O)CC2)cc1 | 2% | 1% | . | -11% | -1% | -7% | 1% | 4%
26 | CCOC(=O)c1cccc(NC(=O)CSc2nnc(COc3ccccc3)n2CC)c1 | -16% | 0% | ? | -1.2% | -46% | 22% | -25% | -1%
27 | COc1ccc(Br)cc1/C=N/NC(=O)Cn1nnnc1N | 1% | 0% | 9% | . | 4% | 21% | 6%[46.1 µM] | .
28 | COCCNc1nnc(SCC(=O)NC(=O)c2ccc(Cl)cc2)s1 | 17% | 0% | -15% | . | . | 1% | -6%[46.1 µM] | .
29 | O=C(NNc1ccc(F)cc1)c1c(F)cccc1Cl | 16% | 0% | 6% | . | 0% | 175% | 8% | .
30 | O=C(Nc1ccc2ccccc2c1)c1cccc(F)c1 | . | -3% | 23% | . | -37% | ? | . | .
31 | O=C(Nc1ccc2ccccc2n1)Nc1cccs1 | ? | -2% | 15% | . | 9% | 4% | -14%[46.1 µM] | .
32 | CCOC(=O)C1=C(CSc2nc(-c3ccccc3)ccc2C#N)OC(N)=C(C#N)C1c1ccccc1 (stereo not given) | -3% | -1% | 14% | -1.6% | 18% | -15% | 25% | 25µM*
33 | CCCOc1ccc(OCCSc2nnc(N)s2)cc1 | 3% | -8% | -7% | 1.4% | 0% | 11% | 22% | -3%
34 | COc1ccc(-c2onc(C)c2C)cc1S(=O)(=O)NCc1ccc(Br)cc1 | ? | . | 39%[activator] | -1.7% | . | . | . | -2%
35 | COC(=O)c1sc(NC(=O)COc2ccccc2)nc1C | -4% | -2% | 48%[activator] | -2.0% | -20% | 8% | 20% | -14%
36 | Cc1cc2c(cc1C)NC(=O)CC(C(F)(F)C(F)(F)C(F)(F)F)=N2 | 4% | 9% | -10% | -4.4% | 10% | -4% | -20% | ?
37 | CN(CC(=O)Nc1c(Cl)cccc1Cl)C(=O)CCc1nc2sc3c(c2c(=O)[nH]1)CCCC3 | -1% | -7% | -13% | . | . | 1% | 3% | .
38 | CC(O)[C@H]1CNC(=O)C(=O)N1CC(C)(C)C (stereo not given in full) | . | -1% | -4% | . | 0% | 2% | . | .
39 | CCOc1ccc(-c2cc(C(=O)NCCCN3CCN(CC)CC3)c3ccccc3n2)cc1 | -2% | -1% | 31%[activator] | -6.0% | 10% | 9% | ? | 1%
40 | S=C1NCN(Cc2cccnc2)CN1c1cccc(Cl)c1 | . | 0% | -2% | . | 6% | -5% | . | .
41 | COc1cc2[nH]c(C(=O)N(C)C3CCS(=O)(=O)C3)cc2c(OC)c1OC (stereo not given) | 18%[46.1 µM] | 5% | 4% | . | 8% | -5% | 19%[46.1 µM] | .
42 | O=C(Nc1ccccc1-c1ccccc1)C1CCCC1 | -26%[46.1 µM] | -5% | 0% | . | . | 4% | 4%[46.1 µM] | .
43 | CCc1ccccc1N(C)C(=O)c1cn(-c2cccc(OC)c2)c(=O)c2ccccc12 | 10%[46.1 µM] | . | -8% | -0.3% | . | . | . | 7%
44 | COc1cc(/C=C/C(=O)O)cc(S(=O)(=O)Nc2ccc3c(c2)CCC3)c1OC | 0%[46.1 µM] | 4% | 12% | . | 20% | 2% | -1%[46.1 µM] | .
45 | Cn1c(=O)c2[nH]c(CCc3ccncc3)nc2n(C)c1=O | -3%[46.1 µM] | . | 0% | . | . | 1% | -8%[46.1 µM] | .
46 | COC(=O)CCc1c(C)c(C(=O)c2cccc(OC)c2OC)c2ccccn12 | . | 1% | 1% | . | 0% | 11% | . | .
47 | C[C@H](Nc1ccc(C(F)(F)F)cc1[N+](=O)[O-])C(=O)O | . | -1% | -4% | . | -1% | 3% | . | .
48 | N#Cc1ccc(C(=O)OCC(=O)N2CCCCCC2)cc1 | 6% | -1% | -6% | . | . | 2% | 1%[46.1 µM] | .
49 | CCN1CCN(CCCNC(=O)c2cnn(-c3ccccc3)c2C2CCN(C(=O)OC(C)(C)C)CC2)CC1 | -3%[46.1 µM] | . | 2% | 0.2% | . | . | . | -11%
50 | O=C(Oc1csc(=S)n1C(=O)c1ccccc1)c1ccccc1 | -7% | -23% | -5% | 0.6% | 0% | 136% | -5% | -1%
51 | CCN(CC)C(=O)C1CCCN(C(=O)Nc2ccccc2)C1 (stereo not given) | 8% | 22% | 10% | 5.8% | -54% | -1% | 12% | -2%
52 | COc1ccc(N/C=C/C(=O)c2cc(OC)c(OC)c(OC)c2)cc1 | -26%[46.1 µM] | -5% | 13% | . | 5% | 6% | ? | .
53 | Cc1ccc(N(C)C(=O)Oc2ccc(C(=O)c3ccc(Cl)cc3)cc2)cc1 | ? | 7% | ? | 4.5% | 13% | 1% | -12% | -6%
54 | CC(=O)c1ccc(NC2=C(N3CCOCC3)C(=O)c3ccccc3C2=O)cc1 | ? | -9% | . | -6.1% | -7% | ? | ? | 4%

Screening data from PubChem.
